HSV replic up: HSV replication enhancement | HSV replication augmentation in cells, fold increase | AID 1956 | maximum fold increase | 0.005% of 220,000 active;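 active = peak rise of 1.5-fold or more in the series; tested in PC3 cells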;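 note: first round at 10 µM; read as green reporter fluorescence; hits show the peak of a series up to 25 µM; 1 = signal of infected wells without compound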
GALR2 ag: activates the human galanin receptor 2; O43603; GALR2-expressing cells, agonist activation read-out; activation, %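 (tested at 5 µM)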; 0.48% of 140,000 active; AID 803;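 active = above mean plus 3 SD of all compounds, about 5% in these data, not always enough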;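 note: 0% = vehicle buffer wells and 100% = reference agonist at full effect; tested in CHO reporter cells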
PKD1 inh: inhibitors of human PKD1 kinase | Q15139 | PKD1 kinase fluorescence polarization assay | inhibition, %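 (about 10 µM by stock and volumes)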 | 0.056% of 200,000 active | AID 797;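 active = inhibition of 50% or more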;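 note: controls were vehicle for no effect and a reference inhibitor for full effect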
Target sequence (Q15139 whole entry, looked up): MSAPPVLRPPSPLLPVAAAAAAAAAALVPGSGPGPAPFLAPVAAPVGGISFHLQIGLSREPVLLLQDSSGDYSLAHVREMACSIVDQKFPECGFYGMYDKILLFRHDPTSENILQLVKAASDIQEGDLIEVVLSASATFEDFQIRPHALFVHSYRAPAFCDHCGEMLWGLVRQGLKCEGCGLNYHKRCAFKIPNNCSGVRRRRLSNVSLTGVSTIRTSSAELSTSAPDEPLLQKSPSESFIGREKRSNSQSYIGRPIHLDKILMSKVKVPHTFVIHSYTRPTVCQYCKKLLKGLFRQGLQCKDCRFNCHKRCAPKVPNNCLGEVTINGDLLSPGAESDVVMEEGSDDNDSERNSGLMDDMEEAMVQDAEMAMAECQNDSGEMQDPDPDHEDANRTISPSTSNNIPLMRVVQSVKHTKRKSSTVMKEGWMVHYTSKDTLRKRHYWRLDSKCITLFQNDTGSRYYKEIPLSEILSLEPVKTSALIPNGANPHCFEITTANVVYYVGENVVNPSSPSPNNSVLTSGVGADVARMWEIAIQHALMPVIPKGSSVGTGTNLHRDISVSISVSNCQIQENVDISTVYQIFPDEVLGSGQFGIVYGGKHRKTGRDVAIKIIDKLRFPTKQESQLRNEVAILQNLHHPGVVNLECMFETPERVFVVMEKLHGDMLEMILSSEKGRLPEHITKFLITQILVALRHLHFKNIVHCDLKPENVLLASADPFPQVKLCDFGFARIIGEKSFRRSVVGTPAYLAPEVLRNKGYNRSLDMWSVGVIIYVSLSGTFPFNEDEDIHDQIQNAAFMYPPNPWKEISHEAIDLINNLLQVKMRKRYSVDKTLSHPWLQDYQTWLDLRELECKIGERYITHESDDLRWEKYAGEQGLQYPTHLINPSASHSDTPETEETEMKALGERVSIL
RGS16-Gao: modulates binding between human RGS16 and Galphao. bead-based flow cytometry RGS16-Galphao binding, fluorescence; actives lie on both sides. binding response (% of control), % at 10 µM. 0.38% of 220,000 active. AID 1441;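 active = below 25% or above 175%, edge rows of some plates excepted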;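 note: Galphao activated by GDP with aluminum fluoride before binding; 100% = wells without compound and 0% = beads without RGS; some results beyond the cut were filed as inactive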
Insulin prom inh: TRM-6 insulin promoter activity inhibition | 0.9% of 130,000 active | TRM-6 cells (human fetal islet line), insulin promoter-eGFP reporter, imaging; reporter expression induced with tamoxifen | inhibition, % at 2 µM | AID 1273;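 active = inhibition above the mean plus 3 SD, with well images judged a real hit on visual review, cut at about 60% in these data, passing the limit was not always enough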
Insulin prom inh cell count: second read-out of Insulin prom inh, no call of its own (marks repeat the call); normalized cell count, %; measured here: cell count, toxicity; reference of the scale not given here;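 cells exposed to compound for 48 h; stained nuclei by imaging scaled within each plate; lower means fewer cells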
HSV replic up primary fold: recorded beside HSV replic up, whose call it bears; fold increase; compound at 10 µM; measured here: primary screen fold increase 10 uM; tested in PC3 cells;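 GFP signal in the first replicate; 1 = infected wells without compound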
Active calls of the source: *; i = inactive; / = no result given.

SMILES	HSV replic up	HSV replic up primary fold	GALR2 ag	PKD1 inh	RGS16-Gao	Insulin prom inh	Insulin prom inh cell count
CCN1CCN(c2nc3c(C)cccn3c(=O)c2/C=C(\C#N)S(=O)(=O)c2ccc(Cl)cc2)CC1	i	1.03	/	/	98.7	/	/
O=C(CSc1nccc(-c2cccs2)n1)Nc1ccccc1	i	0.98	/	/	102.8	/	/
CCNC(=O)COC(=O)c1cc(-c2ccccc2)nn1-c1ccccc1	i	0.96	/	-4.9	100.8	-33.3	64.0
Nc1ccc2nc(-c3ccc(Cl)cc3)[nH]c2c1	i	0.73	/	-2.6	97.8	/	/
COc1cccc(C=NCCNC(=O)c2nonc2N)c1O	i	0.953	-2.4	-4.0	103.6	0.0	104.2
CCOC(=O)C1C(=O)OC2(CCCCC2)C1C(=O)OCC (stereo unspecified)	i	0.89	-1.1	-10.0	101.6	45.8	136.9
Cc1ccc(OCC(=O)NCCN2CCCC2)cc1	i	0.96	-0.6	-9.4	108.2	-7.9	69.2
O=C(c1ccc2c(c1)OCO2)N(c1ccccc1)C1C=CS(=O)(=O)C1 (stereo unspecified)	i	0.97	-3.9	-7.2	100.0	9.1	141.6
Cc1ccc(-c2c[n+](CC(=O)c3ccc(Br)cc3)c3n2CCCCC3)cc1	i	0.89	/	-7.4	103.8	-6.7	90.4
CNC(=O)CN1C(=O)NC2(CCc3ccccc3C2)C1=O (stereo unspecified)	i	0.91	/	2.4	110.1	10.0	147.5
Cc1ccc(OCC(=O)Nc2ccccc2-c2ccccc2)cc1	i	0.95	-2.9	12.3	98.5	/	/
COc1ccc(N(C(=O)C2COc3ccccc3O2)C(C(=O)NC2CCCCC2)c2ccccc2)cc1OC (stereo unspecified)	i	0.83	0.1	-3.5	101.4	-10.0	108.6
CCSc1nnc(NC(=O)/C=C/c2ccc3c(c2)OCO3)s1	i	0.93	0.1	-7.5	105.1	-44.7	113.0
O=S(=O)(CC(O)COc1ccc(Br)cc1)c1ccccc1 (stereo unspecified)	i	0.95	/	/	100.2	/	/
COc1ccccc1NS(=O)(=O)c1ccc(N2CCOCC2)c(NC(=O)c2ccco2)c1	i	0.98	/	-3.5	111.7	33.3	84.1
CC(/C=C/c1ccccc1)=N\NC(N)=S	i	0.94	-1.7	-9.7	99.0	/	/
O=C1NC(=O)/C(=C\c2ccc(Sc3ccc(Cl)cc3)o2)N1	i	0.82	-0.8	-12.9	97.3	-14.3	84.8
CCOC(=O)N1CCN(C(=O)C2CCCN(S(C)(=O)=O)C2)CC1 (stereo unspecified)	i	1.02	-2.2	-12.4	104.7	/	/
COc1ccc(NC(=O)CC2C(=O)N(c3ccc(OC)cc3)C(=S)N2NC(=O)c2cccc(F)c2)cc1 (stereo unspecified)	i	0.85	-0.9	-1.0	106.0	/	/
COCC(C)NC(=O)c1cccc([N+](=O)[O-])c1 (stereo unspecified)	i	0.75	/	0.8	101.6	/	/
Nc1c(Cl)ncnc1N/N=C/c1ccccn1	i	0.69	0.8	-9.5	50.2	55.6	15.2
COc1ccccc1-c1cc(C(=O)N/N=C\c2cn(C)nc2C)c2ccccc2n1	i	0.98	-0.6	-6.1	99.7	21.4	149.1
CN1C(=O)C(O)(CC(=O)c2ccc(F)cc2)c2cc(Br)ccc21 (stereo unspecified)	i	1.01	-1.4	-2.6	104.0	/	/
Cc1cc(C)cc(Nc2cc(C)nc3nc(C)nn23)c1	i	0.98	-0.8	-4.2	108.9	/	/
Cc1cccc(OCC(O)CNC(=O)c2ccccc2C(=O)O)c1 (stereo unspecified)	i	0.957	-2.1	-1.6	/	7.4	71.2
C/C(=N\NC(=O)c1n[nH]c2c1CCC2)c1cccs1	i	0.77	/	/	87.7	/	/
Cc1n[nH]c(=S)c2nn(-c3ccccc3)c(C)c12	/	/	-1.5	4.5	97.1	/	/
CC(C)Oc1cccc(C(=O)C2CCCN(Cc3ccc4nonc4c3)C2)c1 (stereo unspecified)	i	1.15	/	-6.3	96.4	/	/
O=C1C2C(c3cccc(/C=C/c4ccccc4)c3)CC=CC2C(c2ccc3ccccc3c2)N1Cc1ccccc1 (stereo unspecified)	i	0.62	/	/	105.7	/	/
Fc1ccc(NCc2nnc(SCc3nnc(-c4ccccc4)o3)n2CC2CCCO2)cc1 (stereo unspecified)	i	0.75	-1.0	-5.4	101.8	-27.5	96.1
Cn1nc(C(F)(F)F)c(-c2ccc(F)cc2)c1NC(=O)Nc1ccc(F)cc1	i	1.05	/	/	103.9	/	/
O=c1c2ccc([N+](=O)[O-])c3cccc(c32)c2nc3ccccc3n12	/	/	-1.1	0.1	105.7	/	/
Cc1ccccc1CSCCNC(=S)Nc1ccccc1	i	1.14	/	5.9	96.0	17.6	63.9
CCN(CC)CCCNc1nnc(C)c(=O)[nH]1	i	0.88	-0.8	-6.3	88.4	/	/
COc1ccc(S(=O)(=O)NCCCCNS(=O)(=O)c2ccc(OC)cc2)cc1	i	0.94	-1.8	-9.2	95.8	10.5	89.7
CC(=O)c1ccc(N2CCN(c3ncc(C(F)(F)F)cc3Cl)CC2)cc1	i	1	6.1	-1.7	101.4	-38.9	124.2
CCCCOc1ccc(C(=O)Nc2ccncc2)cc1	i	0.86	-2.3	-13.7	99.3	-126.7	85.1
CCc1nnc(NC(=O)[C@@H]2CCCN2S(=O)(=O)c2ccc3c(c2)OCCO3)s1	i	1.01	-2.2	-7.3	93.9	-17.6	62.3
CC1=NN(c2ccccc2)C(=O)/C1=C\c1cn(-c2ccccc2)nc1C	i	0.87	/	-4.3	99.5	50.0	130.6
CCN(CC)c1ccc2c(c1)CCCN2	i	0.98	-1.4	-4.0	71.8	/	/

Compound profiles, from the list above.
CCCCOc1ccc(C(=O)Nc2ccncc2)cc1 is entered as HSV replic up: i; HSV replic up primary fold: 0.86; GALR2 ag: -2.3; PKD1 inh: -13.7; RGS16-Gao: 99.3; Insulin prom inh: -126.7; Insulin prom inh cell count: 85.1
CCN(CC)c1ccc2c(c1)CCCN2 is entered as HSV replic up: i; HSV replic up primary fold: 0.98; GALR2 ag: -1.4; PKD1 inh: -4.0; RGS16-Gao: 71.8; Insulin prom inh: /; Insulin prom inh cell count: /

Two of the compounds above, bar-delimited.
mol | HSV replic up | HSV replic up primary fold | GALR2 ag | PKD1 inh | RGS16-Gao | Insulin prom inh | Insulin prom inh cell count
CC1=NN(c2ccccc2)C(=O)/C1=C\c1cn(-c2ccccc2)nc1C | i | 0.87 | / | -4.3 | 99.5 | 50.0 | 130.6
CCc1nnc(NC(=O)[C@@H]2CCCN2S(=O)(=O)c2ccc3c(c2)OCCO3)s1 | i | 1.01 | -2.2 | -7.3 | 93.9 | -17.6 | 62.3

Later entries.
SMILES	HSV replic up	HSV replic up primary fold	GALR2 ag	PKD1 inh	RGS16-Gao	Insulin prom inh	Insulin prom inh cell count
Cc1nnc(NC(=O)CSCc2ccccc2)s1	i	0.84	-1.5	-1.0	92.5	/	/
CC(C)CC(=O)c1c[nH]c(C(=O)NCC2CCCO2)c1 (stereo unspecified)	i	1.22	-1.2	-5.8	102.8	-73.9	118.2
O=c1c2ccccc2[nH]c2ccc(F)cc12	i	0.8	/	7.4	98.4	53.3	93.8
CCc1nnc(NC(=O)CSc2nnc(-c3ccc(NS(=O)(=O)c4ccccc4)cc3)o2)s1	i	1	0.3	-12.9	104.4	24.2	2.7
COc1ccc(CCN(C(=O)/C=C/C(=O)O)C2CC(=O)N(c3ccccc3)C2=O)cc1 (stereo unspecified)	i	0.97	/	-3.5	103.6	/	/
CC1(C)CC(=O)C2=C(C1)NC1=C(C(=O)c3ccccc31)C2c1ccc(O)cc1 (stereo unspecified)	i	0.78	-0.9	-5.0	100.8	/	/
COc1ccccc1CCN1C(=S)NC(C)(C)CC1(C)O (stereo unspecified)	i	1.03	-0.1	-1.7	107.2	-25.7	94.0
O=C1NC(C(=O)O)=CC(c2ccc([N+](=O)[O-])cc2)N1 (stereo unspecified)	i	0.93	/	/	92.7	/	/
COc1cc(OC)c(C2Oc3nc(SC)nnc3-c3ccccc3N2C(C)=O)cc1OC (stereo unspecified)	i	1.1	-2.4	-0.1	100.4	/	/
CCn1nc(C(=O)N2CCc3ccccc3C2)c2ccccc2c1=O	i	0.99	-1.9	-1.5	74.7	/	/
O=C(Nc1ccc(Cl)cc1)NC1CCCCC1Cc1ccco1 (stereo unspecified)	i	0.97	-0.8	-6.7	102.6	-30.2	86.4
CCC(C)(C)n1nnnc1CN1CCC(c2nc3ccc(C)cc3[nH]2)CC1	i	1.02	-2.7	-8.2	101.5	-15.2	117.0
Cc1cccc(C(=O)NNC(=O)CN2C(=O)c3ccccc3C2=O)c1	i	0.98	-1.4	-6.1	142.7	/	/
CCOC(=O)c1c(C)n(CC(O)c2ccccc2)c2ccc(O)cc12 (stereo unspecified)	i	1.01	-1.4	-9.6	98.5	-45.5	81.4
CCn1ncc(C2=NOC(C(=O)N3CCC(C(N)=O)CC3)C2)c1C (stereo unspecified)	i	0.98	/	/	101.0	/	/
CCOC(=O)Cc1cc(=O)[nH]c(Nc2nc3ccccc3o2)n1	i	1.06	-1.2	-4.0	107.0	/	/
CC(C)c1nc(SCC(=O)Nc2cccc(C(F)(F)F)c2)c2c(=O)n(C)c(=O)n(C)c2n1	i	1.05	0.6	-7.7	105.3	/	/
O=C(NCCCNC(=O)c1cncc(O)c1)c1cncc(O)c1	i	0.93	/	-6.1	114.1	-50.0	51.5
Cc1ccc(C(=O)OCC(=O)Nc2ccc3c(c2)OCO3)o1	i	1.01	-2.1	-8.9	97.2	-280.9	46.8
C/C(=N\NC(=O)CC#N)c1cc2ccccc2oc1=O	i	1.06	-0.1	-9.6	95.5	41.4	83.4

Structures above that contain a thiophene ring, fused or not (2):
SMILES	HSV replic up	HSV replic up primary fold	GALR2 ag	PKD1 inh	RGS16-Gao	Insulin prom inh	Insulin prom inh cell count
O=C(CSc1nccc(-c2cccs2)n1)Nc1ccccc1	i	0.98	/	/	102.8	/	/
C/C(=N\NC(=O)c1n[nH]c2c1CCC2)c1cccs1	i	0.77	/	/	87.7	/	/

(continued)
SMILES	HSV replic up	HSV replic up primary fold	GALR2 ag	PKD1 inh	RGS16-Gao	Insulin prom inh	Insulin prom inh cell count
O=C(C1CCC(CNS(=O)(=O)c2cccc3nsnc23)CC1)N1CC=C(c2ccccc2)CC1 (stereo unspecified)	i	0.65	-0.6	-2.8	102.5	/	/
OCCCN1c2ccccc2Nc2nnc(-c3ccccc3)cc21	i	1.02	-1.1	-4.2	106.2	25.7	61.3
Cc1ccsc1C1CC(=O)Nc2ccccc2S1 (stereo unspecified)	i	0.94	/	/	105.9	/	/
O=C(COc1cc(Cl)c(Cl)cc1Cl)Nc1ccncc1	i	0.86	0.5	-3.3	108.8	-21.0	95.7
COc1ccc(OC)c(/C(C)=N/Nc2ccc(C(=O)O)cc2)c1	i	1.02	/	3.1	104.2	/	/
CSc1ncc(Cl)c(C(=O)Nc2ccccc2Cl)n1	i	1.03	-0.6	7.3	98.0	/	/
O=C(Nc1ccc(Cl)cc1)Nc1nnc(-c2ccncc2)s1	i	0.69	-0.8	9.7	99.3	/	/
CC(C)c1ccccc1NC(=O)c1ccco1	i	0.86	-1.6	-1.0	98.1	-44.4	84.8
Cc1cc(C)n(-c2ccc(C(=O)Nc3ccc(C)c(S(=O)(=O)N(C)C)c3)cc2)n1	i	0.77	-1.6	-4.6	107.4	0.0	64.6
CCCn1c(/N=C/c2cc(OC)ccc2O)nc2ccccc21	i	0.993	-2.2	8.4	99.2	/	/
COc1ccc(NC(=O)CN2CCN(C(=O)c3ccco3)CC2)c(OC)c1	i	0.97	-2.1	-6.2	103.1	-18.9	160.6
CCn1c2ccc(F)cc2c2nc3ccccc3nc21	i	0.95	/	-7.4	98.1	/	/
O=C(N/N=C/c1ccco1)Nc1ccccc1	i	1.41	-0.6	5.3	98.5	/	/
COc1ccc(OC)c(/C=N/N(C)c2ccccc2)c1	i	0.96	0.6	-5.3	86.5	-132.1	95.0
CN(C)/C=C(\C#N)C(=O)Nc1ccccc1	i	0.95	/	-3.3	98.6	/	/
CCOC(=O)N1CCN(C(=O)Cc2ccc(-n3c(=S)[nH]c4ccccc4c3=O)cc2)CC1	i	0.87	-1.1	3.1	41.0	-72.7	128.3
CSc1ccc(S(=O)(=O)Nc2c(C)cccc2C)cc1	/	/	-3.3	1.2	120.7	/	/
Cc1cccc(NC(=S)Nc2ccc(Cl)c(Cl)c2)c1	i	0.94	/	-6.4	98.5	15.0	82.6
CCCCc1nnc(NC(=O)CN2C(=O)c3ccccc3C2=O)s1	i	1.06	/	0.2	104.6	5.9	83.6
Cc1cc(=O)[nH]c(Cc2ccc(OC(C)C)cc2)n1	i	0.76	-2.5	-5.9	105.0	/	/
Cc1cc(C)c(S(=O)(=O)c2ccccc2C)c(OCCO)n1	i	0.92	/	6.5	103.5	/	/
